Compound activity: PubChem BioAssay, ICCB-Longwood Screening Facility, Harvard Medical School
UCH37 inh: inhibitors of human UCH37 deubiquitinase, primary screen, biochemical, Ub-AMC cleavage, fluorescence | Ubiquitin carboxyl-terminal hydrolase isozyme L5 (Homo sapiens), Q9Y5K5 | purified proteasome/UCH37 | inhibition, % (concentration not given with the values) | 330,000 tested, 0.33% active | AID 588478, 2011;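 active = mean of two replicates above 20%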;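 note: 0% = compound-free wells with enzyme and 100% = wells lacking proteasome; stock transfer was 100 nL into about 20 µL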
Target sequence (Q9Y5K5 whole entry, looked up): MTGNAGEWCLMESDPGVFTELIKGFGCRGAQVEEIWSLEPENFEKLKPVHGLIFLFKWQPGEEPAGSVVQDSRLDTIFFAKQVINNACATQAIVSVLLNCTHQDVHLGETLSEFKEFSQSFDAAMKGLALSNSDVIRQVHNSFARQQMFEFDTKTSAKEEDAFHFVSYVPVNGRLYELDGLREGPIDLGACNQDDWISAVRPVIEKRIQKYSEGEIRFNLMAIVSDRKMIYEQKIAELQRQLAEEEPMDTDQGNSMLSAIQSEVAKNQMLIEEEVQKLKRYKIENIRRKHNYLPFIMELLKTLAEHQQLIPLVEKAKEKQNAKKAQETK
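Material: Human UCH37 enzyme supplied as purified proteasome complex | Schedule: 30 min compound-proteasome preincubation then 25 min substrate reaction, room temperature | Detection: AMC fluorescence from Ub-AMC cleavage, excitation 355 nm, emission 460 nm | Benchmarks: Wells without proteasome as full block, compound-free enzyme plus substrate as uninhibited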
E coli growth: E. coli growth inhibition, primary screen, OD600; OD600 absorbance (concentration not given with the values); Escherichia coli growth, 23 h; stronger effect = lower value; AID 1053175, 2014; 330,000 tested, 0.21% active;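 active = OD600 absorbance below the run mean of sample wells minus 3.6 SD, in any replicate, cut at about 0.56 in these data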;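 note: stock transfer was 300 nL into about 60 µL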
Numbers without * were called inactive. An excerpt; the hit share may differ from the screen's.

How did Cc1ccc(C=NN2CCN(C3c4ccccc4-c4ccccc43)CC2)s1 do in these assays?
UCH37 inh: 0.0; E coli growth: 0.7

What do the screens show for `COC(=O)c1ccc(C=Nn2cnnc2)cc1`?
UCH37 inh: 4.2; E coli growth: 0.68

What do the screens show for `Cc1cc(-c2ccccc2)nc(NN=Cc2cccnc2)n1`?
UCH37 inh: 5.2; E coli growth: 0.69

Results for CN(C)CCCCNCCCNC(=O)C=NO ?
UCH37 inh: 0.6; E coli growth: 0.68

How did COC(=O)NN=Cc1ccccc1Cl do in these assays?
UCH37 inh: -0.4; E coli growth: 0.69

Results for O=c1[nH]ncc(NN=Cc2cccs2)c1Cl ?
UCH37 inh: 15; E coli growth: 0.71

How did O=C(O)COc1ccccc1C=NNC(=O)c1cc(-c2ccc(F)cc2)nc2ccccc12 do in these assays?
UCH37 inh: 6.9; E coli growth: 0.67

Results for O=C(O)CN=C1CC(c2ccccc2)CC(=O)/C1=C(\O)CCCN1C(=O)c2ccccc2C1=O (stereo not given) ?
UCH37 inh: 1.9; E coli growth: 0.64

How did Cc1nnsc1C(=O)NN=Cc1ccccc1Cl do in these assays?
UCH37 inh: 2.9; E coli growth: 0.69

What do the screens show for `O=C(NN=Cc1ccc(Cl)s1)C(O)c1ccccc1` (stereo not given)?
UCH37 inh: 7.0; E coli growth: 0.64

What do the screens show for `COc1ccccc1N1CCN(C(=O)C(=O)NN=Cc2cccc(O)c2)CC1`?
UCH37 inh: 1.6; E coli growth: 0.69

What do the screens show for `CC(=NNc1ccc(Cl)c(C(=O)O)c1)c1ccccn1`?
UCH37 inh: 9.3; E coli growth: 0.71

What do the screens show for `NC(=NO)c1ccc(N2CCN(c3ncccc3C(F)(F)F)CC2)nc1`?
UCH37 inh: 1.4; E coli growth: 0.66

How did Cc1ccnc(NN=Cc2ccccc2)n1 do in these assays?
UCH37 inh: -11; E coli growth: 0.71

Results for CC(CC(=O)Nc1ccc(Cl)cc1Cl)=NNC(=O)C(=O)NCCO ?
UCH37 inh: 4.4; E coli growth: 0.67

What do the screens show for `Cc1ccc(C=NNC(=O)Cc2ccc(Cl)cc2)c(O)c1`?
UCH37 inh: 0.9; E coli growth: 0.67

What do the screens show for `C/C(C=NNc1nc(C)cc(=O)[nH]1)=C\c1ccccc1`?
UCH37 inh: 6.5; E coli growth: 0.63

What do the screens show for `Cc1cc(C)c2c(c1)C(=c1sc3n(c1=O)CN(c1ccccc1)CN=3)C(=O)N2`?
UCH37 inh: 4.7; E coli growth: 0.72

Results for CC(=NNC(=O)c1ccc(Cl)c(Cl)c1)c1ccccn1 ?
UCH37 inh: 0.7; E coli growth: 0.69

Results for O=C(NN=Cc1ccccn1)C1c2ccccc2Oc2ccccc21 ?
UCH37 inh: 1.1; E coli growth: 0.65

How did CCOc1cc(C=N/N=C2/NC(=O)C(CC(=O)O)S2)ccc1OCc1ccc(Cl)cc1 (stereo not given) do in these assays?
UCH37 inh: 5.5; E coli growth: 0.72

How did CCCC(=NNC(=O)CNC(=O)/C=C/c1ccco1)c1ccccc1 do in these assays?
UCH37 inh: 1.4; E coli growth: 0.68

What do the screens show for `O=C(COc1ccc(Br)cc1)NN=C1SCC(=O)N1Cc1ccccc1`?
UCH37 inh: 1.1; E coli growth: 0.69

How did COC(=O)c1scc(C)c1NN=C(C)c1cc(F)c(Cl)cc1F do in these assays?
UCH37 inh: -29; E coli growth: 0.68

Results for O=C(NN=Cc1ccc(OC(=O)c2cccs2)cc1)c1ccc(Cl)cc1 ?
UCH37 inh: 4.1; E coli growth: 0.71

How did CC(=NNC(=O)c1cccc(S(=O)(=O)N2CCCC2)c1)c1ccc(F)cc1 do in these assays?
UCH37 inh: 0.6; E coli growth: 0.65

How did Cc1cc(C(=O)NN=Cc2cccnc2)cs1 do in these assays?
UCH37 inh: 2.7; E coli growth: 0.68

Results for CCCc1cc(=O)c2ccc(OCC(C)=NO)cc2o1 ?
UCH37 inh: 2.2; E coli growth: 0.68

Results for Cc1c(NC(=S)NN=Cc2ccc(O)cc2)c(=O)n(-c2ccccc2)n1C ?
UCH37 inh: 0.1; E coli growth: 0.69

Results for COc1ccc(CC(=O)NN=Cc2sccc2C)cc1 ?
UCH37 inh: 2.5; E coli growth: 0.61

How did COc1cccc(C=NN2CCN(C)CC2)c1 do in these assays?
UCH37 inh: 0.8; E coli growth: 0.68

Results for CCOC(=O)c1nc(NN=Cc2ccccc2)sc1Br ?
UCH37 inh: 5.5; E coli growth: 0.72

What do the screens show for `Nn1cnnc1NN=Cc1cc([N+](=O)[O-])c(Cl)cc1Cl`?
UCH37 inh: 2.0; E coli growth: 0.76

Results for COc1cc(C(=O)NN=Cc2ccc3c(c2)c2ccccc2n3C)ccc1O ?
UCH37 inh: -136; E coli growth: 0.7

Results for Cc1nn(C)c(C(=O)NN=Cc2cc3c(cc2Br)OCO3)c1Br ?
UCH37 inh: 4.8; E coli growth: 0.69

What do the screens show for `CC1(C)CC(=O)CC(=NNC(=O)CCc2ccc(S(=O)(=O)N3CCOCC3)cc2)C1`?
UCH37 inh: 2.8; E coli growth: 0.7

Results for Cc1cccc(N=Cc2nc(-c3ccccc3Br)oc2O)n1 ?
UCH37 inh: 2.6; E coli growth: 0.73

Results for COc1ccc2ccccc2c1C=NNC(=O)c1cccc([N+](=O)[O-])c1 ?
UCH37 inh: 7.2; E coli growth: 0.7

How did O=c1c(C=NO)coc2ccc3ccccc3c12 do in these assays?
UCH37 inh: -0.1; E coli growth: 0.75

What do the screens show for `C(CCc1ccccc1)=NNc1nc2ccccc2[nH]1`?
UCH37 inh: 0.5; E coli growth: 0.64

Results for CCc1ccccc1NC(=O)CC(C)=NNC(=O)COc1ccccc1C ?
UCH37 inh: 3.2; E coli growth: 0.66

How did O=C(CNC(=O)c1cccnc1)NN=Cc1ccc(O)cc1O do in these assays?
UCH37 inh: 0.3; E coli growth: 0.66

What do the screens show for `Cc1ccc(C(=O)ON=C2CCS(=O)(=O)c3sccc32)cc1`?
UCH37 inh: 1.0; E coli growth: 0.76

What do the screens show for `C/C(C=NN1CCN(c2ccccn2)CC1)=C\c1ccccc1`?
UCH37 inh: 2.9; E coli growth: 0.72

Results for Cc1cc(C(=O)NN=C/C(Br)=C/c2ccccc2)c(C)o1 ?
UCH37 inh: 1.5; E coli growth: 0.56

4 neighbouring records out of the list so far, for reference:
How did COc1cccc(C=NN2CCN(C)CC2)c1 do in these assays?
UCH37 inh: 0.8; E coli growth: 0.68

Results for CCOC(=O)c1nc(NN=Cc2ccccc2)sc1Br ?
UCH37 inh: 5.5; E coli growth: 0.72

What do the screens show for `Nn1cnnc1NN=Cc1cc([N+](=O)[O-])c(Cl)cc1Cl`?
UCH37 inh: 2.0; E coli growth: 0.76

Results for COc1cc(C(=O)NN=Cc2ccc3c(c2)c2ccccc2n3C)ccc1O ?
UCH37 inh: -136; E coli growth: 0.7

More structures follow:
Results for O=c1cnnc(NN=Cc2cccs2)[nH]1 ?
UCH37 inh: 8.4; E coli growth: 0.68

How did CCCc1c(C(=O)NN=Cc2cccc3ccccc23)nnn1-c1nonc1N do in these assays?
UCH37 inh: -0.3; E coli growth: 0.73

How did COc1ccc(O)c(C=NN=Cc2cccc([N+](=O)[O-])c2)c1 do in these assays?
UCH37 inh: 3.1; E coli growth: 0.71

What do the screens show for `OC[C@@H](O)[C@H](O)C(C=NNc1ccccc1)=NNc1ccccc1`?
UCH37 inh: 2.7; E coli growth: 0.62

Results for CC(=NNc1ccc(C(=O)O)cc1)c1ccc2c(c1)Nc1ccccc1S2 ?
UCH37 inh: -52; E coli growth: 0.69

Results for CCOC(=O)c1cc(CC)sc1N=CC1C(=O)CC(C)(C)CC1=O ?
UCH37 inh: -1.3; E coli growth: 0.68

Results for Cc1nc2c(cnn2-c2ccccc2)c(=O)n1N=Cc1ccccc1 ?
UCH37 inh: 0.3; E coli growth: 0.65

How did Cc1cccc(C=Nn2c(-c3ccccc3)n[nH]c2=S)c1O do in these assays?
UCH37 inh: 1.1; E coli growth: 0.63

Results for COc1cccc(C(=O)NN=C2SCC(=O)N2Cc2ccc3c(c2)OCO3)c1 ?
UCH37 inh: 0.8; E coli growth: 0.7

How did Cn1cc(C(=O)c2ccc(Cl)cc2Cl)cc1C(=O)NN=C(N)COc1ccc(F)cc1 do in these assays?
UCH37 inh: 0.1; E coli growth: 0.76

What do the screens show for `COCc1cc(C=NNC(=O)Cc2ccc(OC)cc2)ccc1OC`?
UCH37 inh: 1.5; E coli growth: 0.73

Results for ON=Cc1ccc2cccc(O)c2n1 ?
UCH37 inh: 5.2; E coli growth: 0.69

What do the screens show for `COc1ccc(OC)c(C=NNC(=O)c2cc[n+](Cc3ccccc3)cc2)c1`?
UCH37 inh: -17; E coli growth: 0.66

Results for Cc1ccc(COc2ccc(Br)cc2C=NO)cc1 ?
UCH37 inh: 2.8; E coli growth: 0.69

What do the screens show for `Cn1c(SCC(=O)NN=Cc2ccco2)nc2ccccc21`?
UCH37 inh: 0.8; E coli growth: 0.69

In the list so far, these contain an NH in an aromatic ring.
Results for O=c1[nH]ncc(NN=Cc2cccs2)c1Cl ?
UCH37 inh: 15; E coli growth: 0.71

What do the screens show for `C/C(C=NNc1nc(C)cc(=O)[nH]1)=C\c1ccccc1`?
UCH37 inh: 6.5; E coli growth: 0.63

What do the screens show for `C(CCc1ccccc1)=NNc1nc2ccccc2[nH]1`?
UCH37 inh: 0.5; E coli growth: 0.64

Results for O=c1cnnc(NN=Cc2cccs2)[nH]1 ?
UCH37 inh: 8.4; E coli growth: 0.68

How did Cc1cccc(C=Nn2c(-c3ccccc3)n[nH]c2=S)c1O do in these assays?
UCH37 inh: 1.1; E coli growth: 0.63

Additional compounds
How did Cc1ccc(C(=O)NN=Cc2cccc(OC(=O)c3cccc(F)c3)c2)cn1 do in these assays?
UCH37 inh: 0.7; E coli growth: 0.64

Results for COc1cc(C=NNc2nc(N3CCCC3)nc(N3CCCC3)n2)ccc1OCc1ccccc1F ?
UCH37 inh: 2.8; E coli growth: 0.72

Results for C(=NNc1nc2ccccc2[nH]1)C1CCCCC1 ?
UCH37 inh: -1.8; E coli growth: 0.68

Results for O=C(NN=Cc1cc2ccccc2nc1Cl)c1ccncc1 ?
UCH37 inh: -43; E coli growth: 0.68

Results for O=C(NN=Cc1ccncc1)c1ccc(Br)s1 ?
UCH37 inh: 5.1; E coli growth: 0.6

Results for N#CC(=NNc1ccc(S(=O)(=O)N2CCOCC2)cc1)C(N)=O ?
UCH37 inh: 18; E coli growth: 0.67

What do the screens show for `CC1(C(=O)NN=Cc2c(F)c(F)c(F)c(F)c2F)CC1(Cl)Cl` (stereo not given)?
UCH37 inh: 2.4; E coli growth: 0.66

Results for Cc1ccsc1C=NNC(=O)c1ccc2c(c1)OCCO2 ?
UCH37 inh: 7.7; E coli growth: 0.64

How did Cc1cc(=O)[nH]c(NN=Cc2ccc(Cl)cc2Cl)n1 do in these assays?
UCH37 inh: -22; E coli growth: 0.68

What do the screens show for `COc1ccc(C=NNC(=O)c2nonc2C)cc1`?
UCH37 inh: 0.8; E coli growth: 0.7

How did CCn1c(C)c(C=NNc2nc3ccccc3s2)c2ccccc21 do in these assays?
UCH37 inh: -10; E coli growth: 0.75

Results for COc1cc(C=NNc2ccc(Cl)nn2)cc(OC)c1O ?
UCH37 inh: 9.2; E coli growth: 0.68

How did COc1ccc(C=NNC(=O)COc2ccccc2)c(C(=O)O)c1OC do in these assays?
UCH37 inh: 3.4; E coli growth: 0.69

What do the screens show for `Cc1ccc(-c2c(C(=O)NN=Cc3ccoc3)nnn2-c2nonc2N)cc1`?
UCH37 inh: 2.3; E coli growth: 0.68

What do the screens show for `CC(=NNc1cc(-c2ccccc2)nc(-c2ccc(Br)cc2)n1)c1cccc(N)c1`?
UCH37 inh: -28; E coli growth: 0.73

How did CCOc1ccc(Br)cc1C(C)=NNC1=NCCN1 do in these assays?
UCH37 inh: 3.2; E coli growth: 0.73

Results for CC(Cc1ccccc1)=NNC(=O)CNC(=O)Cc1ccc(Cl)cc1 ?
UCH37 inh: 8.3; E coli growth: 0.68

How did CC(=NNC(=O)c1ccc(C)cc1C)c1ccc2c(c1)Nc1ccccc1S2 do in these assays?
UCH37 inh: -24; E coli growth: 0.68

How did C=CCc1cccc(C=NNC(=O)CNc2cccc3ccccc23)c1O do in these assays?
UCH37 inh: 1.5; E coli growth: 0.67

What do the screens show for `CCc1cc(C(=O)NN=Cc2c(C)[nH]c3ccccc23)cs1`?
UCH37 inh: -6.9; E coli growth: 0.71

Results for COc1ccc(C(=O)ON=C(c2cccs2)C(C)(C)C)cc1 ?
UCH37 inh: 3.6; E coli growth: 0.65

Results for Cc1cc(C)c(COCc2cc(C=NO)c(C)cc2C)cc1C=NO ?
UCH37 inh: 4.8; E coli growth: 0.67

Results for COc1ccc(C=NNC(=O)c2nnn(-c3nonc3N)c2CN(C)C2CCCCC2)cc1 ?
UCH37 inh: 2.8; E coli growth: 0.62

What do the screens show for `O=C(CNC(=O)C(c1ccccc1)c1ccccc1)NN=Cc1cccnc1`?
UCH37 inh: 0.1; E coli growth: 0.72

How did COC(=O)C(C=NO)NC(=O)c1ccccc1 (stereo not given) do in these assays?
UCH37 inh: 1.1; E coli growth: 0.68

Results for COc1ccc(CON=Cc2c(C)[nH]c(=O)[nH]c2=O)cc1 ?
UCH37 inh: -1.0; E coli growth: 0.71
